Compound activity from PubChem.
UCH37 inh = human UCH37 deubiquitinating enzyme inhibition; Q9Y5K5; purified proteasome/UCH37, Ub-AMC cleavage fluorescence; inhibition, % (concentration not given with the values); actives 0.33% (n = 330,000);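 active means mean of two replicates above 20%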;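 further: 0% = compound-free wells with enzyme and 100% = wells lacking proteasome; stock transfer was 100 nL into about 20 µL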
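Material: human UCH37 enzyme supplied as purified proteasome complex. Measure: % inhibition of Ub-AMC cleavage fluorescence. Medium: pH 7.4 Tris-HCl (50 mM) with ovalbumin, ATP-MgCl2, DTT. Times: 30 min preincubation with enzyme, 25 min cleavage at room temperature. Detection: AMC fluorescence intensity at 355/460 nm.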
ALR H2O2 inh = blocks human ALR sulfhydryl oxidase activity; inhibition, % (no concentration beside the values); P55789; actives 3.8% (n = 290,000); purified ALR, DTT oxidation, H2O2 HRP-luminol luminescence;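 active means mean and each replicate at 75% or more; inconclusive means only one of the two met; inactive means neither met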;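 further: stock transfer was 7.5 nL into about 7.5 µL; 0% = neutral wells and 100% = wells with inactivated enzyme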
Target sequence (P55789 whole entry, looked up): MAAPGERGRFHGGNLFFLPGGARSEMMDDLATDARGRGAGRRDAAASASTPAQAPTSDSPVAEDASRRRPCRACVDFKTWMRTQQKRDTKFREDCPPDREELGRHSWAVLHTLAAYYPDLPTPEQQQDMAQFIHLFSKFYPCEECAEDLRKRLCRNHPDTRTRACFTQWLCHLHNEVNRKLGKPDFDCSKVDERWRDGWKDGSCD
HNF4A DNA FP = change in binding of human HNF4 alpha to DNA. actives 0.3% (n = 360,000). activity change, % at 10 µM. HNF4a-FITC DNA binding, fluorescence polarization, 1 h. P41235; in the data active means activity change above about 30%, passing the limit was not always enough;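 further: controls were the assay level and a saturating level of protein; the project sought stronger binding though the title names inhibitors; some compounds called inactive have numbers as strong as hits; positive values seem to mean higher polarization but the record does not say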
Target sequence (P41235 whole entry, looked up): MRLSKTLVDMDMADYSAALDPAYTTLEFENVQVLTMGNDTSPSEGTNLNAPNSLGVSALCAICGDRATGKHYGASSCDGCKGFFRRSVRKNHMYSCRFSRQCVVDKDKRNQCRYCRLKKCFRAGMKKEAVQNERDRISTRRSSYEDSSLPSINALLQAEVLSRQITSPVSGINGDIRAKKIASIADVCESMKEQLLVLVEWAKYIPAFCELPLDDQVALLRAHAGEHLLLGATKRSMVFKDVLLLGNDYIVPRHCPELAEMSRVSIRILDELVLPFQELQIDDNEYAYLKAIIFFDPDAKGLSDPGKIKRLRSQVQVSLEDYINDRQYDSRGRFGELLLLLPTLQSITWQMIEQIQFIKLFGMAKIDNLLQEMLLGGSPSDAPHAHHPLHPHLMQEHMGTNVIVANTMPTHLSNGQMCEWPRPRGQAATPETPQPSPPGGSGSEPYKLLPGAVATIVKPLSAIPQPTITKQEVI
FGF22 binding = shifts melting point of recombinant human FGF22; recombinant FGF22 thermal shift, SYPRO orange fluorescence; percent of sucrose octasulfate shift, DMSO zero; actives 1.5% (n = 340,000); Q9HCT0; calls only at 9.99 µM; AID 651658;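 active means melting point raised past a set limit in the mean and every replicate; inconclusive means no clear call; three in four hits are not shown here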
Target sequence (Q9HCT0 whole entry, looked up): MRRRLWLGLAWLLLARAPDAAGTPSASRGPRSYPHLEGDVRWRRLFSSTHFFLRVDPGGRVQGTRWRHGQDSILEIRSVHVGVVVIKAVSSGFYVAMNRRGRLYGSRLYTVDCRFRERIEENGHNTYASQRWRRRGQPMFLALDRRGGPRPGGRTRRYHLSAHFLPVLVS
B2AR ag = agonists of human beta-2 adrenergic receptor inducing internalization. Am2.2-beta2AR cells, FAP receptor internalization, flow cytometry; reference of the scale not given here. response, % (concentration not given with the values). actives 0.43% (n = 340,000). AID 504454;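 active means response above a set limit, near 3 SD of response in nonfluorescent compounds, cut at about 42% in these data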;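 further: stock transfer was 100 nL into about 11 µL; a reference agonist was the positive control; negative values mostly stem from fluorescent compounds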
Ecoli growth = blocks Escherichia coli growth; OD600, 23 h; stronger effect = lower value; OD600 absorbance (test concentration not listed); actives 0.21% (n = 330,000); AID 1053175;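 active means OD600 absorbance below the run mean of sample wells minus 3.6 SD, in any replicate, cut at about 0.56 in these data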;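 further: stock transfer was 300 nL into about 60 µL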
LANA-H2B inh = blocks KSHV LANA binding to histone H2A/H2B. inhibition, % (no concentration beside the values). cell-free LANA-H2A/H2B peptide, fluorescence polarization. actives 0.6% (n = 320,000). AID 2629; in the data active means inhibition mostly above about 10%, no sharp cut-off; inactive means mostly below about 6.7%;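 further: stock transfer was 7.5 nL into about 10 µL; 0% = median of vehicle wells and 100% = median of positive control wells; one replicate is shown; the record names a cut of 25% in any replicate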
The depositor's hits bear a star; i = inactive; ? = inconclusive; · = no result given. Some of the compounds tested, so the mix of outcomes need not match the whole.

UCH37 inh	ALR H2O2 inh	HNF4A DNA FP	FGF22 binding	B2AR ag	Ecoli growth	LANA-H2B inh	mol
5.1	·	-0.6	·	5	0.66	·	Cc1ccccc1NC(=O)Cc1nc(COC(=O)c2ccc(S(C)(=O)=O)c([N+](=O)[O-])c2)cs1
3.3	0	7.1	i	-2	0.68	-2.4	C#Cc1ccc(CN2CCC(N3CCC(C(=O)NCc4ccccn4)CC3)CC2)cc1
1.2	-4	2.2	i	-12	·	-3.1	CCOC(=O)CN1C(=O)N[C@@H](CCc2ccccc2)C(C(=O)OC)=C1C
4.7	·	1.8	i	·	0.7	·	O=C(CSCC(=O)NN=Cc1ccccc1)NN=Cc1ccccc1
1.3	28	-3.8	·	-2	0.65	-2.5	CCc1cc(-c2n[nH]c(=S)n2CC)cs1
-1.0	-3	-4.9	i	0	0.7	0.5	CCCCn1c(SCC(=O)Nc2ccc3c(c2)CCC3)nc2ccccc2c1=O
·	?	-1.9	i	29	·	·	CCc1nnc(NC(=O)c2nc(S(=O)(=O)Cc3ccc(C)cc3)ncc2Cl)s1
4.3	-3	-1.1	i	0	0.73	-6.0	COc1ccc(C(=O)NC(=S)NCc2ccco2)cc1Br
·	·	-5.1	i	8	·	·	ON=C1c2ccccc2-c2ccc(F)cc21
-47	1	-3.7	·	4	0.63	0.7	CCOC(=O)C(Cc1ccccc1)c1ccnc2nc(N)nn12 (centres undefined)
4.0	-9	-0.4	i	3	0.66	8.3	CCc1nccn1S(=O)(=O)c1ccccc1[N+](=O)[O-]
-0.8	·	3.7	i	0	0.7	·	CSCC[C@H](N)C(=O)NC[C@H]1O[C@@H](n2cnc3c(N)ncnc32)[C@H](O)[C@@H]1O
2.2	-5	-2.1	·	-1	0.75	4.3	COC(=O)CCC(=O)Nc1cccc2ccccc12
3.7	-8	3.5	·	5	0.78	-1.3	O=C(C1=C(O)C(=O)N(Cc2ccco2)C1c1cccnc1)c1cc2ccccc2o1 (centres undefined)
1.3	-5	1.6	i	2	0.68	0.6	O=C(CSc1nnc(-c2ccccc2F)o1)OCc1ccccc1
·	1	6.3	i	5	·	1.3	COCCNC(=S)N/N=C/c1c2ccccc2cc2ccccc12
1.2	10	8.8	i	4	0.68	2.0	O=[N+]([O-])c1cccnc1NCCc1c[nH]c2ccccc12
0.4	-1	-0.5	i	2	0.67	1.9	CNS(=O)(=O)c1ccc(NC(=O)c2ccc(Cl)cc2Cl)cc1
-0.6	-1	4.2	i	27	0.69	1.9	COC(=O)c1ccc(COC(=O)[C@@H]2CC(O)CN2S(=O)(=O)c2ccccc2[N+](=O)[O-])cc1 (some centres undefined)
·	·	7.8	·	4	·	1.5	COc1cc(/C=N/NC(=O)c2ccc(COc3ccccc3Cl)o2)cc(Br)c1O
4.2	·	1.4	i	-7	0.66	1.7	CCOC(=O)c1c(C)oc2cc(Cl)c(O)c(CN(C)C)c12
4.3	-1	0.3	i	-9	0.68	1.9	Cc1cc(-n2cnnn2)cc(C)c1S(=O)(=O)N(C)c1ccccc1
4.2	·	3.4	i	-15	0.67	·	N#Cc1cc2ccccc2nc1SCc1cccnc1
5.4	·	0.3	i	0	0.74	·	COc1cc(/C=C/C(=O)OCC(=O)c2ccc(S(=O)(=O)N3CCCCC3)cc2)cc(OC)c1OC
2.6	-6	0.3	i	10	0.72	-1.7	Cc1nc(CN(C)C(=O)c2ccccc2OC2CCN(S(C)(=O)=O)CC2)cs1
1.4	35	1.3	i	16	0.65	2.2	CC(CCc1ccc(O)cc1)NCCC(c1ccccc1)c1ccccc1 (centres undefined)
2.2	0	4.5	·	6	0.73	-0.3	CC1Cc2ccccc2N1Cc1nc2scc(-c3cccs3)c2c(=O)[nH]1 (centres undefined)
2.3	-2	0.4	·	-13	0.73	-4.9	CCC(c1nc2ccccc2c(=O)n1-c1nc2ccccc2s1)N1C(=O)c2ccccc2C1=O (centres undefined)
·	-3	-0.3	i	0	·	-1.9	Cc1ccc(/C=N/N=C2/NC(=O)C(CC(=O)Nc3ccc(Cl)cc3)S2)o1 (centres undefined)
-2.1	2	-2.9	·	2	0.65	-2.9	CC(=O)N1c2ccccc2N(Cc2ccc([N+](=O)[O-])cc2)C(=O)C1(C)C
5.9	10	26	·	11	0.67	-1.7	O=c1c2cn[nH]c2[nH]c(=S)n1-c1ccccc1F
1.2	-14	1.0	i	3	0.59	8.3	CN(C)c1cc[n+](CC(=O)c2ccc(-c3ccccc3)cc2)cc1
4.0	-5	-0.8	i	6	0.62	0.2	NC(=S)NN=C1c2ccccc2-c2ccccc21
3.9	-14	0.0	i	-6	0.66	-2.3	COc1ccc(NC(=O)C2CCN(C(=O)C3CC(=O)N(c4ccc(C)cc4)C3)CC2)c(OC)c1 (centres undefined)
-0.2	99*	1.9	i	-6	0.61	2.9	CCN(CC)c1ccc(NC(=O)CN2CCN(c3ccccn3)CC2)cc1
-0.2	-7	-4.6	i	-9	0.71	3.4	CCOC(=O)c1sc2nc(C)[nH]c(=O)c2c1C
0.5	-21	-0.2	i	9	0.72	-6.6	COC(=O)C1CCCN1S(=O)(=O)c1ccc([N+](=O)[O-])cc1 (centres undefined)
-0.5	-5	5.2	i	1	0.65	1.6	COc1ccc(C=O)cc1COc1ccc([N+](=O)[O-])c(C)c1
-0.3	0	2.8	·	-1	0.74	-2.1	COc1cc(C(=O)Oc2ccccc2)ccc1OCc1c(C)noc1C
5.3	0	2.8	i	-5	0.69	1.8	O=C(COC(=O)CCSc1ccc(Cl)cc1)NCc1ccc(Cl)cc1
1.4	·	3.0	·	4	0.72	2.5	CCC(C)(CC(=O)N(C)CCC#N)c1ccccc1 (centres undefined)
2.4	99*	2.0	i	7	0.72	0.8	CCCCCC(=O)Nc1ccc(-c2csc(N)n2)cc1
-0.4	·	-0.4	i	-22	0.64	-1.2	COc1ccc(CNC(C)C23CC4CC(CC(C4)C2)C3)c(OC)c1OC (centres undefined)
1.2	·	·	i	·	0.65	0.4	CC(C)n1c(CN(C)Cc2ccccc2)nc2c1c(=O)n(C)c(=O)n2C
3.3	-1	1.7	i	-5	0.74	1.4	CCOc1ccc(NC(=O)C2CCCN(S(=O)(=O)c3c(C)nn(C)c3C)C2)cc1 (centres undefined)
-1.3	-13	0.9	i	-7	·	-3.5	O=C(NC1CC1)C1=C[C@@H](c2ccc3c(c2)OCO3)C[C@@H](OCCCCO)O1
-1.0	-27	-1.7	i	-1	0.67	-1.7	CC(=O)N(CN1C(=O)c2ccc([N+](=O)[O-])cc2C1=O)c1cccc(C(=O)O)c1
-1.4	5	4.4	·	-4	0.71	2.7	O=C(CSc1nnc(CNc2ccc(F)cc2)n1Cc1ccco1)N1CCCC1

One compound at a time, as listed above. Screens in order: UCH37 inh, ALR H2O2 inh, HNF4A DNA FP, FGF22 binding, B2AR ag, Ecoli growth, LANA-H2B inh
O=C(COC(=O)CCSc1ccc(Cl)cc1)NCc1ccc(Cl)cc1 as listed: 5.3, 0, 2.8, i, -5, 0.69, 1.8
CCOc1ccc(NC(=O)C2CCCN(S(=O)(=O)c3c(C)nn(C)c3C)C2)cc1 (centres undefined) as listed: 3.3, -1, 1.7, i, -5, 0.74, 1.4

Next entries follow:
UCH37 inh	ALR H2O2 inh	HNF4A DNA FP	FGF22 binding	B2AR ag	Ecoli growth	LANA-H2B inh	mol
1.9	-8	2.6	·	9	0.68	1.7	COc1ccccc1N(CC(=O)Nc1ccc(S(=O)(=O)N2CCCCC2)cc1)S(C)(=O)=O
·	54	-1.7	·	3	·	0.4	Cc1nonc1C(=O)N/N=C/c1ccc(O)c(O)c1
·	-1	2.7	i	-13	·	-4.6	O=C(N/N=C(/c1ccccc1)c1ccncc1)c1ccc2c(c1)OCO2
2.2	-4	-15	·	18	0.71	7.9	COc1cc(C(=O)Nc2ccc3c(c2)C(=O)c2ccccc2C3=O)cc(OC)c1OC
6.7	-2	4.0	i	-12	·	2.2	COc1ccc(S(=O)(=O)Nc2ccc3c(c2)C(=O)N([C@H](C)CO)C[C@H](C)[C@@H](CN(C)C(=O)NC2CCCCC2)O3)cc1
2.9	0	7.5	·	-10	0.68	7.1	O=C(Nc1cccc(N2CCCC2)c1)c1cccs1
2.5	-1	0.1	i	-3	0.72	3.1	O=C(/C=C/c1ccc(Cl)cc1)Nc1cc(S(=O)(=O)N2CCOCC2)ccc1N1CCOCC1
·	0	-45	i	-3	·	-1.2	O=C(CSc1nnc(SCc2ccccc2)s1)N/N=C/C=C/c1ccco1
3.4	-11	-1.4	i	1	0.67	-4.9	Cc1cc[n+](CC(=O)Nc2cccc(C)c2)cc1
-0.6	-8	-1.7	i	7	0.69	-2.7	CCc1nc2ccc(C(=O)NC3CCC(C)CC3)cc2nc1CC (centres undefined)
-12	-6	4.0	i	-3	0.66	2.4	COc1ccccc1C(=O)NCCC(=O)NNC(=O)c1ccccc1O
·	·	2.4	i	-6	·	·	O=C(O)C1(O)C[C@@H](O)C(O)[C@H](O)C1 (some centres undefined)
1.5	-10	3.7	·	1	0.63	2.3	COc1ccccc1CCNCc1ccc(OC)c(OCc2ccccc2)c1
1.8	-3	2.0	i	1	0.69	-2.3	CC(C)Cc1nn2c(=O)cc(O)nc2s1
4.7	-3	-12	·	-3	0.71	4.9	Cc1ccc(C(=O)NCc2occc2C(=O)O)o1
1.7	-1	-1.3	i	-9	0.71	1.2	Cc1c(C(=O)O)sc(S(=O)(=O)N2CCN(C(=O)Cc3ccc(F)cc3)CC2)c1C(=O)O
1.8	-40	1.3	i	-5	0.68	-3.6	Cc1cc(C)c(OCC(O)CN2CCN(C(=O)c3ccccc3)CC2)c(C)c1 (centres undefined)
6.2	63	-0.1	i	6	0.66	0.6	CCCCOc1ccc2c(c1)C(=O)c1cc(O)ccc1-2
2.4	·	0.3	i	-2	0.69	3.8	O=S(=O)(c1cccc(C(F)(F)F)c1)N1CCN(CC(O)COCc2ccccc2)CC1 (centres undefined)
-0.3	-2	-0.3	·	-4	0.65	3.9	O=C(Nc1nc2ccc(S(=O)(=O)N3CCCC3)cc2s1)c1ccccn1
4.3	-10	-3.2	·	-13	0.74	3.5	O=C(COc1ccc2ccccc2c1)Nc1nc2ccccc2[nH]1

Just FGF22 binding and Ecoli growth (five entries from above):
Compound	FGF22 binding	Ecoli growth
O=C(COc1ccc2ccccc2c1)Nc1nc2ccccc2[nH]1	·	0.74
CCCCOc1ccc2c(c1)C(=O)c1cc(O)ccc1-2	i	0.66
O=C(Nc1nc2ccc(S(=O)(=O)N3CCCC3)cc2s1)c1ccccn1	·	0.65
O=S(=O)(c1cccc(C(F)(F)F)c1)N1CCN(CC(O)COCc2ccccc2)CC1 (centres undefined)	i	0.69
CC(C)Cc1nn2c(=O)cc(O)nc2s1	i	0.69
